From PubChem
proCasp7 act – counter-screen: procaspase-7 (human) activation. AID 463210. activation, % at 8.5 µM. P55210. 330,000 tested, 0.093% active. recombinant procaspase-7, Ac-DEVD-pNA absorbance 405 nm; D23A/D198A/D206A triple mutant, cannot self-cleave; scale: DMSO 0, 5 µM enzyme 100;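 active = percent activation above the screen-wide mean plus 3 SD, cut at about 25% in these data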
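Material: Procaspase-7 triple mutant (PC-7 D3A) | Quantity: 2 µM procaspase-7 mutant as dispensed | Reagent: DEVD-pNA substrate | Times: 1 h preincubation, 2 h reaction | Technique: 405 nm absorbance of p-nitroaniline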
CIT2 TOR yeast – alters CIT2-GFP fluorescence in TOR pathway yeast screen. S. cerevisiae CIT2-GFP strain, flow cytometry, 3 h; 100 means same as DMSO wells. GFP response vs DMSO, % at 10 µM. 320,000 tested, 0.065% active. AID 2029;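 active = GFP response relative to DMSO above a set limit, near the screen mean plus 3 SD, cut at about 150% in these data; inconclusive = Fewer than 70 cells measured for a yeast strain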;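 note: ratio of well median GFP fluorescence to mean of DMSO wells on the plate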
RPL19A-GFP yeast – yeast TOR pathway RPL19A-GFP modulation | S. cerevisiae RPL19A-GFP strain, flow cytometry, 3 h; active compounds read low | percent response vs DMSO, % at 10 µM | 330,000 tested, 0.3% active | AID 2025;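 active = percent response vs DMSO below 50%; inconclusive = fewer than 70 events counted for the yeast strain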;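 note: median channel GFP fluorescence of the barcoded RPL19A-GFP strain; ratio of sample median GFP to plate DMSO average so 100% = DMSO; lower means less RPL19A-GFP as with rapamycin TOR inhibition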
AGP1-GFP MLPCN – alters AGP1-GFP fluorescence in TOR pathway yeast screen; S. cerevisiae AGP1-GFP multiplex flow cytometry, 3 h; GFP as percent of DMSO wells; GFP response vs DMSO, % at 10 µM; 320,000 tested, 0.02% active; AID 2066;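 active = GFP response relative to DMSO above a set limit, near screen average plus 3 SD, cut at about 150% in these data; inconclusive = fewer than 70 cells counted for the yeast strain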;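 note: median GFP channel fluorescence of the gated AGP1 strain per well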
AHR act – activates the human aryl hydrocarbon receptor. P35869. AHR-responsive luciferase reporter cells, luminescence. activation, % at 5 µM. 320,000 tested, 2.5% active; in the data active = activation above about 47%;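 note: 0% = vehicle wells and 100% = reference agonist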
Target sequence (P35869 whole entry, looked up): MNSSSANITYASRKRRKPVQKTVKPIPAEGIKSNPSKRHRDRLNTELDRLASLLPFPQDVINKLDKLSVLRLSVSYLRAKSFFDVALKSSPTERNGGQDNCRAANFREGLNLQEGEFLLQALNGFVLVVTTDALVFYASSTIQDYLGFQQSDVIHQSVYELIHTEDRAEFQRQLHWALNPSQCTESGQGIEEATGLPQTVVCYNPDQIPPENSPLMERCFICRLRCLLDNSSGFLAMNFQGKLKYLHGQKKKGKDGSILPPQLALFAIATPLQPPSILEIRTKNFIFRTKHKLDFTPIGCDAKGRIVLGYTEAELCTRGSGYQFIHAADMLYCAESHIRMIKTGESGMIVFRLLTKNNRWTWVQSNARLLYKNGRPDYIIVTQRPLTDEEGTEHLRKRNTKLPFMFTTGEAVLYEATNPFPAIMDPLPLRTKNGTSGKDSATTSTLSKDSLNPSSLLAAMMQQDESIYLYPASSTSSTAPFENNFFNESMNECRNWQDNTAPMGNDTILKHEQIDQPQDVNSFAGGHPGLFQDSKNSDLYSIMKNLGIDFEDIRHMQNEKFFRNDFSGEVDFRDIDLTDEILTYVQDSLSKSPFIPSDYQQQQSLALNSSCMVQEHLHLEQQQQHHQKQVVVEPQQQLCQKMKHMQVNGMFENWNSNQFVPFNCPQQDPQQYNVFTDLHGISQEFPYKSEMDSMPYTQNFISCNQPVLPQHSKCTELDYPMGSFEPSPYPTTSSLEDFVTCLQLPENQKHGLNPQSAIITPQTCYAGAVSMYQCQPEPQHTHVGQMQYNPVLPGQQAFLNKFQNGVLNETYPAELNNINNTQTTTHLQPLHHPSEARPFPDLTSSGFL
MEP2 TOR yeast – modulators of TOR pathway MEP2-GFP in S. cerevisiae | GFP response vs DMSO, % at 10 µM | S. cerevisiae MEP2-GFP strain, flow cytometry GFP, 3 h; 100% = DMSO control level | 330,000 tested, 0.51% active;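 active = GFP response versus DMSO above a set limit, roughly screen mean plus 3 SD, cut at about 180% in these data; inconclusive = fewer than 70 cells counted for a yeast strain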;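 note: median GFP fluorescence of the barcode-gated MEP2-GFP cells per well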
LAP4-GFP MLPCN – yeast TOR pathway LAP4-GFP modulation; S. cerevisiae LAP4-GFP multiplex, flow cytometry GFP, 3 h; median GFP as percent of DMSO wells; GFP response vs DMSO, % at 10 µM; 320,000 tested, 0.34% active; AID 2023;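 active = GFP response vs DMSO above a set limit, about the screen mean plus 3 SD, cut at about 150% in these data; inconclusive = under 70 cell events counted for the yeast strain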
An asterisk follows results filed as active; ? = inconclusive; [ ] = another dose, or the depositor's remark. These rows are one share of the data; the hit share may differ from the screen's.

SMILES	RPL19A-GFP yeast	AHR act	LAP4-GFP MLPCN	CIT2 TOR yeast	proCasp7 act	MEP2 TOR yeast	AGP1-GFP MLPCN
Cc1ccc(NC(=O)C(=O)Nc2ccccn2)cc1	107	-3	99	98	12	102	103
C1=C(c2cc3ccccc3cn2)CCCC1	100	10	121	100	-10	117	104
CCN1C(=O)c2ccc(C(=O)Nc3cccc(C(=O)O)c3)cc2C1=O	97	1	99	95	6	102	95
O=C(Nc1nc2ccc(F)cc2s1)C1=COCCO1	75	48*	141	76	-6	107	80
Cc1ccc(OC(=O)c2cccc(S(=O)(=O)N3CCCC3)c2)c(-n2nc3ccccc3n2)c1	92	38	102	83	-5	115	90
COc1ccc(-c2noc(-c3ccccc3F)n2)cc1	96	48*	106	98	-1	111	107
CCc1ccc(OCC(=O)N2CCc3ccccc32)cc1	97	-1	117	93	3	102	94
COc1ccc(NC(=O)c2cnc(SCC(=O)NCCc3ccccc3)n(C)c2=O)cc1	92	13	93	94	14	96	92
COC(=O)c1ccc(/C=N/NC(=O)c2cccc(F)c2)cc1	100	4	105	98	-6	105	98
O=C(CCC1CCCCC1)Nc1ccccc1O	100	-6	100	99	-9	105	98
O=C(O)C1CC(c2ccc(F)cc2)=NO1 (stereo unspecified)	99	1	97	98	-2	109	107
O=C(Nc1ccccc1F)Nc1ccccc1Br	94	12	88	96	-2	97	81
O=C(Nc1ccccc1)Nc1ccc(Nc2ccccc2)cc1	93	1	111	100	7	100	100
COc1ccccc1NC(=O)C(=O)Nc1ccccn1	96	39	107	95	2	102	97
Cc1ccc(OC(F)F)c(NC(=O)Nc2ccc3c(c2)OCO3)c1	109	82*	74	94	-7	101	92
c1ccn2cc(-c3ccc4c(c3)OCCO4)nc2c1	92	-2	128	98	11	123	95

For reference, twelve of the compounds above:
SMILES	RPL19A-GFP yeast	AHR act	LAP4-GFP MLPCN	CIT2 TOR yeast	proCasp7 act	MEP2 TOR yeast	AGP1-GFP MLPCN
O=C(Nc1nc2ccc(F)cc2s1)C1=COCCO1	75	48*	141	76	-6	107	80
Cc1ccc(OC(=O)c2cccc(S(=O)(=O)N3CCCC3)c2)c(-n2nc3ccccc3n2)c1	92	38	102	83	-5	115	90
COc1ccc(-c2noc(-c3ccccc3F)n2)cc1	96	48*	106	98	-1	111	107
CCc1ccc(OCC(=O)N2CCc3ccccc32)cc1	97	-1	117	93	3	102	94
COc1ccc(NC(=O)c2cnc(SCC(=O)NCCc3ccccc3)n(C)c2=O)cc1	92	13	93	94	14	96	92
COC(=O)c1ccc(/C=N/NC(=O)c2cccc(F)c2)cc1	100	4	105	98	-6	105	98
O=C(CCC1CCCCC1)Nc1ccccc1O	100	-6	100	99	-9	105	98
O=C(O)C1CC(c2ccc(F)cc2)=NO1 (stereo unspecified)	99	1	97	98	-2	109	107
O=C(Nc1ccccc1F)Nc1ccccc1Br	94	12	88	96	-2	97	81
O=C(Nc1ccccc1)Nc1ccc(Nc2ccccc2)cc1	93	1	111	100	7	100	100
COc1ccccc1NC(=O)C(=O)Nc1ccccn1	96	39	107	95	2	102	97
Cc1ccc(OC(F)F)c(NC(=O)Nc2ccc3c(c2)OCO3)c1	109	82*	74	94	-7	101	92

New compounds follow:
SMILES	RPL19A-GFP yeast	AHR act	LAP4-GFP MLPCN	CIT2 TOR yeast	proCasp7 act	MEP2 TOR yeast	AGP1-GFP MLPCN
Fc1ccc2cc(-c3ccccc3)ncc2c1	94	28	95	85	14	99	91
O=C(COc1ccccc1)Nc1ccccc1F	102	0	91	100	-1	104	91
Cc1ccc(O)c(-n2nc3ccccc3n2)c1	99	4	103	108	-1	103	104
CCCOc1ccc(-c2cn3ccccc3n2)cc1	96	1	105	92	1	87	98
O=C(Nc1ccc(NC(=O)c2ccccc2F)cc1)c1cccs1	97	-4	92	97	7	95	95
COc1cccc(NC(=O)CSc2nc3ccccc3c(=O)n2CCCC(=O)NCC2CCCO2)c1 (stereo unspecified)	102	1	99	96	-4	106	99
Cc1ccc(OC(=O)COc2ccccc2C)c(-n2nc3ccccc3n2)c1	102	19	106	102	-5	104	95
Cc1cc(C)cc(NC(=O)C(=O)NCC2CCCN2S(=O)(=O)c2cccs2)c1 (stereo unspecified)	98	10	104	97	1	100	105
Cc1nc(-c2ccc(C(=O)Nc3ccc(F)cc3)cc2)cs1	100	-12	95	106	3	105	94
CN=C1S/C(=C\c2ccc(O)c(OC)c2)C(=O)N1C	100	-1	114	101	1	106	105
COc1ccc(-c2noc(-c3ccccc3Cl)n2)cc1OC	92	8	104	92	1	98	91
COc1ccc(NC(=O)Nc2cc(C)ccc2OC)cc1	102	3	103	105	6	107	108
O=C(OCc1ccccn1)c1ccc(COc2ccccc2Cl)o1	99	2	105	86	-7	102	91
COc1ccc2cc(-c3ccsc3)ncc2c1	91	24	105	83	3	83	85
CCn1nc(C)c(/C=N/NC(=O)c2ccoc2C)c1C	103	33	99	103	-1	107	100
COC(=O)c1sccc1NC(=O)Nc1cccc(C(C)=O)c1	96	5	102	92	4	96	95
COc1ccc(/C(N)=N/OC(=O)CSc2ccc(C)cc2)cc1	99	1	105	106	9	92	106
COc1ccccc1NC(=O)Nc1ccc(F)c(F)c1	101	12	95	98	-7	97	98
O=C(Nc1ccc(-c2nc3ccccc3s2)cc1)C1=COCCO1	104	50*	111	91	9	98	97
Cc1csc(NC(=O)Nc2ccccc2[N+](=O)[O-])n1	95	20	96	79	-12	105	89
CCOc1ccc(OCCN2C(=O)c3ccccc3C2=O)cc1	?	-16	107[may fluoresce red]	93[may fluoresce red]	5	?	?
COn1c2c(c3c4nonc4ccc31)CCCC2	88	1	108	88	4	113	89
COc1ccccc1/C=N/Nc1cc(N(C)C)nc(N(C)C)n1	105	43	94	104	-9	103	100
CCOC(=O)c1ccccc1N/C=C/C(=O)c1cccs1	100	30	106	100	-20	102	99
COc1ccc(NC(=O)c2ccc([N+](=O)[O-])o2)cc1	108	4	98	109	17	97	97
CC(=O)NCCc1ccc(C(=O)COC(=O)C2CCCCC2)cc1	98	-2	95	102	10	104	99
CCOCC(=O)Nc1cc(C(=O)Nc2ccc(F)cc2)ccc1Cl	103	63*	110	94	14	96	100
O=C(Nc1ccc(NC(=O)c2cccs2)cc1Cl)c1ccco1	104	-7	105	99	1	101	108
O=C(COc1ccccc1)Nc1ccccc1N1CCN(c2ccccc2)CC1	100	-2	93	101	1	103	105
O=C(COC(=O)c1cccnc1Cl)c1ccc2c(c1)OCCO2	104	-1	96	91	1	95	99
Cc1cccc(C(=O)OCC(=O)c2ccc3c(c2)OCCO3)c1O	102	1	107	99	6	99	106
COc1ccc(C)cc1NC(=O)Nc1cccc(C)c1	98	34	108	111	5	105	92
Cc1ccnc(N(C(=O)c2cccs2)C(=O)c2cccs2)c1	106	50*	101	102	0	106	104
Fc1ccccc1-c1cc2ccccc2cn1	96	38	92	89	-2	83	90
Fc1ccc2cnc(-c3ccccc3F)cc2c1	102	32	100	108	-1	112	100
COc1ccccc1-c1nc(-c2cccc(C)c2)no1	90	10	92	91	0	94	91
COc1cc(/C=C/c2nc3ccccc3c(=O)[nH]2)cc(Cl)c1O	104	4	95	105	2	136	101
COc1ccc(NC(=O)Nc2ccccc2F)cc1Cl	102	-6	98	102	-13	99	101
O=C(NC(=S)Nc1ccccn1)c1ccccc1	104	13	117	88	6	98	89
O=C(N/N=C/c1ccc(OC(=O)c2ccccc2)c([N+](=O)[O-])c1)c1ccc(O)cc1	100	-1	83	112	7	103	100
Cn1c(SCC(=O)c2ccccc2)ncc(C(=O)Nc2ccccc2)c1=O	97	34	116	93	-16	97	104
Cc1occc1C(=O)Nc1nnc(C2CCCCC2)s1	96	-3	114	94	-7	103	96
COc1cccc(C(=O)Nc2ccc(C(=O)O)cc2)c1	103	2	101	105	-5	102	104
COc1ccc(-c2noc(-c3ccoc3C)n2)cc1	94	26	149	76	-5	84	82
O=C(Nc1ccccc1F)C(=O)Nc1cccc2ccccc12	99	2	98	93	-6	110	96
COC(=O)c1sccc1NC(=O)COc1ccccc1Cl	107	6	115	95	2	104	104
COc1ccccc1NC(=O)Nc1ccc2c(c1)OCCO2	99	14	103	93	5	101	104
COc1ccccc1C(=O)Nc1nc2cc3c(cc2s1)OCCO3	96	11	95	82	10	92	89
COC(=O)c1sccc1NC(=O)Nc1cccc(Cl)c1Cl	102	8	104	110	2	100	102
O=C(Nc1ccc(Cl)cc1)c1cccc(S(=O)(=O)Nc2ccccn2)c1	111	91*	74	96	12	99	?
CCCCOC(=O)c1ccc(NC(=O)c2ocnc2C)cc1	105	2	123	106	-2	104	99
O=C(O)c1ccccc1-c1ccc(/C=c2\sc3nc4cc(Br)cnc4n3c2=O)o1	95	7	107	110	-19	105	97
O=C(Nc1ccc(-c2cn3c(n2)SCC3)cc1)c1ccc2c(c1)OCO2	103	-6	108	113	-3	111	108
O=C(CCc1ccccc1)Nc1ccccc1F	109	0	112	109	12	115	110
COc1ccc(C(=O)Nc2ccc3ccccc3c2)cc1OC	103	2	91	98	11	103	96
Cc1ccn2cc(-c3cccc([N+](=O)[O-])c3)nc2c1	101	11	96	113	2	95	87

(next part)
SMILES	RPL19A-GFP yeast	AHR act	LAP4-GFP MLPCN	CIT2 TOR yeast	proCasp7 act	MEP2 TOR yeast	AGP1-GFP MLPCN
O=[N+]([O-])c1cccnc1NCCc1c[nH]c2ccccc12	102	24	94	99	-5	98	91
Cc1ccc(OC(=O)COc2ccccc2)c(-n2nc3ccccc3n2)c1	97	23	94	92	4	102	96
CCCOc1ccc(C(=O)Nc2ccccc2[N+](=O)[O-])cc1	101	0	103	110	4	107	99
O=C(COc1ccc(F)cc1)Nc1nccs1	101	7	94	91	6	88	99
Cn1c(SCC(=O)NCc2ccccc2)ncc(C(=O)Nc2ccccc2)c1=O	103	17	94	99	6	106	98
COc1cccc(C(=O)Nc2ccc(C)cc2)c1	99	10	105	93	-4	109	97
COc1cc(OC)cc(-c2cc3ccc(F)cc3cn2)c1	93	20	100	78	2	93	82
COc1ccc(NC(=O)c2cccc(F)c2)cc1Cl	102	-2	102	99	8	102	90
COc1ccc(C)cc1NC(=O)COC(=O)c1c(C)nn(-c2ccccc2)c1C	99	1	101	92	4	102	95
COc1ccc(-c2cc3ccc(F)cc3cn2)cc1	93	47*	93	88	7	94	87
Cc1ccc(/C(N)=N/OC(=O)CSc2ccccc2)cc1	105	1	98	104	-8	104	104
COc1ccc(-c2ccc(NC(=O)c3ccc(Br)o3)cc2)nn1	99	-5	111	99	-1	103	107
Cc1cc(C(=O)COC(=O)c2ccco2)c(C)n1Cc1ccco1	98	-5	109	93	-2	104	100
COc1ccc(-c2cc3ccccc3cn2)cc1	97	51*	106	96	5	87	96
